Assay outcomes (PubChem BioAssay)
DUX4 inh – blocks DUX4-driven transcriptional activation | activity change, negative = inhibition, % (test concentration not listed) | AID 1224904 | 293T-iDUX4 ZSCAN4-Gaussia luciferase reporter, 24 h; stronger effect = lower value | actives 0.8% (n = 37,000);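 active means -10% or lower and over 25 points stronger than a control reporter; inconclusive means -10% or lower with a smaller gap; inactive means above -10%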;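 further: 0% = median of neutral control wells and -100% = median of positive control wells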
DUX4 inh difference – further read-out of DUX4 inh, marked with its call; Gaussia minus Italica difference, %; measured here: selective DUX4 reporter inhibition;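 worked out from the two reporters; negative = selective loss of the DUX4 reporter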
DUX4 inh control – further read-out of DUX4 inh, marked with its call; activity change, negative = inhibition, %; measured here: Italica tet-on control reporter;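 0 = neutral control and -100 = positive control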
* marks the source's active call; other numbers are inactive results; ? = inconclusive; . = not tested or not shown.

DUX4 inh	DUX4 inh difference	DUX4 inh control	mol
-4.5	-3.9	-0.6	CC[C@@H]1CC=CC[C@@H](C)Oc2ccccc2C(=O)N(C)[C@@H](C(C)C)C(=O)N1 (mixture of isomers)
2.3	2.6	-0.4	N#C[C@H]1[C@H](c2ccc(-c3cccc(F)c3)cc2)[C@@H](CO)N1C(=O)c1cccnc1
2.4	2.3	0.1	COCC(=O)Nc1ccc2c(c1)C(=O)N(C)[C@@H]1CC[C@H](CC(=O)NC3CCCC3)O[C@@H]1CO2
5.4	7.7	-2.3	O=C(CN1CCOCC1)N1CCCCN2[C@H](CO)[C@H](c3ccc(-c4ccccc4F)cc3)[C@H]2C1
9.5	11.0	-1.5	COc1ccc2c3c(n(C)c2c1)[C@@H](CO)N(C(=O)c1ccc(F)cc1)CC31CN(C)C1
1.5	1.5	0.0	C[C@@H]1CCCCO[C@@H](CN(C)C(=O)NC2CCCCC2)[C@H](C)CN([C@H](C)CO)C(=O)c2cc(NC(=O)CCC(F)(F)F)ccc2O1
4.5	-1.2	5.7	CCCNC(=O)N(C)C[C@@H]1Oc2cc(C#C[C@@H](C)O)ccc2S(=O)(=O)N([C@H](C)CO)C[C@@H]1C
-4.3	-2.8	-1.6	C/C=C/c1cnc2c(c1)C(=O)N([C@H](C)CO)C[C@H](C)[C@H](CN(C)C(=O)c1cnccn1)O2
-1.3	-0.5	-0.9	Cc1noc(C)c1S(=O)(=O)Nc1ccc2c(c1)C(=O)N([C@@H](C)CO)C[C@@H](C)[C@@H](CN(C)S(=O)(=O)c1ccc(F)cc1)OCCCC[C@H](C)O2
2.1	-16.8	18.9	C[C@@H]1CN([C@H](C)CO)C(=O)c2ccccc2-c2ccccc2CO[C@H]1CN(C)S(=O)(=O)c1cccc(F)c1
3.1	3.8	-0.7	O=C(N[C@@H]1CC[C@@H](CCn2cc(-c3ccccc3)nn2)O[C@H]1CO)c1ccccc1F
-0.4	-3.5	3.1	N#C[C@@H]1[C@@H](c2ccccc2)[C@H](CO)N1C(=O)c1cccnc1
?	.	.	C[C@H](CO)N1C[C@H](C)[C@H](CN(C)Cc2ccc(C(F)(F)F)cc2)OCc2ccccc2-c2c(n(C)c3ccccc23)C1=O
?	.	.	C[C@@H]1CN([C@@H](C)CO)C(=O)c2c(c3ccccc3n2C)-c2ccccc2CO[C@H]1CN(C)S(=O)(=O)c1cccc(F)c1
1.7	0.9	0.7	CNC[C@H]1Oc2c(NC(=O)c3ccc(-c4nccs4)cc3)cccc2C(=O)N([C@@H](C)CO)C[C@@H]1C
3.7	-3.1	6.8	O=C(CN1CCOCC1)N1CCCCN2[C@H](C1)[C@@H](c1ccc(Br)cc1)[C@@H]2CO

Record cards, from the list above. Order of values: DUX4 inh, DUX4 inh difference, DUX4 inh control
`COCC(=O)Nc1ccc2c(c1)C(=O)N(C)[C@@H]1CC[C@H](CC(=O)NC3CCCC3)O[C@@H]1CO2` across the screens: 2.4, 2.3, 0.1
`COc1ccc2c3c(n(C)c2c1)[C@@H](CO)N(C(=O)c1ccc(F)cc1)CC31CN(C)C1` across the screens: 9.5, 11.0, -1.5
`CNC[C@H]1Oc2c(NC(=O)c3ccc(-c4nccs4)cc3)cccc2C(=O)N([C@@H](C)CO)C[C@@H]1C` across the screens: 1.7, 0.9, 0.7

(next part)
DUX4 inh	DUX4 inh difference	DUX4 inh control	mol
7.7	-4.9	12.6	O=C1CNC[C@@H]2[C@H](c3ccc(C4=CCCC4)cc3)[C@H](CO)N12
1.0	4.8	-3.9	O=C(C1CCOCC1)N1C[C@H]2[C@@H](c3ccccc31)[C@@H](CO)N2Cc1ccccc1F
1.7	-4.1	5.7	CC(C)NC(=O)NCC[C@@H]1CC[C@@H](NC(=O)c2ccc(F)cc2)[C@@H](CO)O1
3.4	-1.4	4.8	O=C(C[C@@H]1CC[C@H]2[C@@H](COC[C@H](O)CN2CCC(F)(F)F)O1)NCc1ccc2c(c1)OCO2
11.5	7.7	3.9	O=C(C[C@H]1CC[C@H]2[C@@H](COC[C@@H](O)CN2Cc2ccccc2)O1)N1CCOCC1
7.2	7.6	-0.4	CN(C)C(=O)C[C@H]1C[C@@H]2c3cc(NC(=O)CC4CC4)ccc3O[C@@H]2[C@@H](CO)O1
5.1	4.7	0.4	Cn1cnc(S(=O)(=O)N[C@H]2C=C[C@H](CC(=O)N3CCN(c4ccccc4)CC3)O[C@H]2CO)c1
-2.2	-12.4	10.2	Cc1cccc(-c2ccc(C3[C@@H]4CN(C(=O)Nc5ccccc5)C[C@H]3N4)cc2)c1 (stereo not given in full)

Seven records drawn at random from those above, as already listed:
DUX4 inh	DUX4 inh difference	DUX4 inh control	mol
-2.2	-12.4	10.2	Cc1cccc(-c2ccc(C3[C@@H]4CN(C(=O)Nc5ccccc5)C[C@H]3N4)cc2)c1 (stereo not given in full)
1.7	-4.1	5.7	CC(C)NC(=O)NCC[C@@H]1CC[C@@H](NC(=O)c2ccc(F)cc2)[C@@H](CO)O1
7.2	7.6	-0.4	CN(C)C(=O)C[C@H]1C[C@@H]2c3cc(NC(=O)CC4CC4)ccc3O[C@@H]2[C@@H](CO)O1
3.4	-1.4	4.8	O=C(C[C@@H]1CC[C@H]2[C@@H](COC[C@H](O)CN2CCC(F)(F)F)O1)NCc1ccc2c(c1)OCO2
1.0	4.8	-3.9	O=C(C1CCOCC1)N1C[C@H]2[C@@H](c3ccccc31)[C@@H](CO)N2Cc1ccccc1F
7.7	-4.9	12.6	O=C1CNC[C@@H]2[C@H](c3ccc(C4=CCCC4)cc3)[C@H](CO)N12
5.1	4.7	0.4	Cn1cnc(S(=O)(=O)N[C@H]2C=C[C@H](CC(=O)N3CCN(c4ccccc4)CC3)O[C@H]2CO)c1

More records
DUX4 inh	DUX4 inh difference	DUX4 inh control	mol
-7.5	-1.5	-5.9	O=C(Nc1ccc(F)cc1)N1CC(=O)N2[C@@H](CO)[C@H](c3ccc(C#Cc4ccccc4)cc3)[C@@H]2C1
-3.7	-14.8	11.1	O=C(Cc1ccccn1)N1CC2(C1)[C@H](c1ccccc1)[C@@H](CO)N2C(=O)c1ccncc1
-0.4	-2.6	2.2	CS(=O)(=O)Nc1ccc2c(c1)[C@@H]1C[C@@H](CC(=O)NCCN3CCCCC3)O[C@@H](CO)[C@@H]1O2
-1.8	-6.4	4.5	O=C(NCCCN1CCOCC1)[C@@H]1[C@@H](CO)[C@@H]2Cn3c(cccc3=O)[C@H]1N2C(=O)NC1CCCC1
-1.5	1.2	-2.7	CC(C)CC#Cc1ccc2c(c1)O[C@H](CN(C)C(=O)c1ccccc1F)[C@@H](C)CN([C@@H](C)CO)S2(=O)=O
1.1	2.2	-1.0	O=C(c1ccccc1)N1CC2(C1)[C@@H](c1ccccc1)[C@@H](CO)N2Cc1cccnc1
17.1	22.6	-5.5	COc1ccc2c3c(n(C)c2c1)[C@H](CO)N(C)CC31CCN(C(=O)Nc2cccc(F)c2)CC1
11.2	11.1	0.0	CCOC(=O)N(C)C[C@@H]1OCc2ccccc2-c2ccccc2C(=O)N([C@H](C)CO)C[C@H]1C
2.1	0.3	1.8	C[C@@H]1CN([C@H](C)CO)C(=O)c2cccc(NC(=O)Nc3ccc(C(F)(F)F)cc3)c2O[C@@H]1CN(C)Cc1ccc2c(c1)OCO2
-0.7	-1.6	1.0	CO[C@H](CN(C)S(=O)(=O)c1ccc(C)cc1)[C@H](C)CN([C@@H](C)CO)S(=O)(=O)c1cccc(Cl)c1
-1.0	-1.2	0.2	COc1ccccc1C#Cc1ccc([C@H]2[C@@H](C#N)N(C(=O)C3CC3)[C@@H]2CO)cc1
0.9	-2.9	3.8	COc1cccc(C#Cc2ccc([C@H]3[C@@H](CO)N4C(=O)CN(C(=O)C5CC5)C[C@@H]34)cc2)c1
0.1	-3.7	3.7	CCCNC(=O)N1[C@H](CNC(C)=O)[C@@H](c2ccc(C3=CCCC3)cc2)[C@@H]1CO
2.9	2.1	0.8	Cc1ccc(S(=O)(=O)N(C)C[C@@H]2Oc3cc(C#CC4CCCC4)ccc3S(=O)(=O)N([C@H](C)CO)C[C@H]2C)cc1
-8.9	-21.3	12.4	COc1ccccc1CNC(=O)C[C@@H]1C[C@H]2c3cc(NC(=O)Nc4ccccc4F)ccc3O[C@H]2[C@H](CO)O1
?	.	.	CCCNC(=O)N1CC(=O)N2[C@H](C1)[C@@H](c1ccc(C#Cc3cccc(F)c3)cc1)[C@@H]2CO
-0.2	-1.6	1.4	CO[C@@H]1CN(C)C(=O)c2ccc(NC(=O)C3CCOCC3)cc2OC[C@@H](C)N(Cc2ccc(F)cc2)C[C@H]1C
1.8	-2.8	4.6	CCC(=O)N[C@@H]1CC[C@@H](CCNC(=O)Nc2ccc(F)cc2)O[C@H]1CO
-0.3	-3.6	3.3	CCCC(=O)Nc1ccc2c(c1)C(=O)N(C)[C@@H]1CC[C@@H](CC(=O)O)O[C@@H]1CO2
23.0	10.3	12.7	O=C(C[C@H]1CC[C@H]2[C@@H](COC[C@@H](O)CN2C(=O)Nc2ccccc2)O1)NCCCN1CCOCC1
?	.	.	O=C(C[C@@H]1C[C@H]2c3cc(NC(=O)Nc4ccccc4F)ccc3O[C@H]2[C@H](CO)O1)NC1CCCCC1
1.5	1.4	0.1	C[C@H]1CN([C@@H](C)CO)S(=O)(=O)c2ccc(Br)cc2O[C@H]1CN(C)S(=O)(=O)c1ccccc1F
4.5	2.3	2.1	C[C@H]1CN([C@@H](C)CO)C(=O)Cc2cc(NC(=O)Cn3cnnn3)ccc2O[C@@H]1CN(C)CC1CCCCC1
4.3	-8.4	12.7	COc1ccc(-c2ccccc2[C@H]2[C@@H](C#N)N(C(=O)C3CCC3)[C@@H]2CO)cc1
-0.2	-3.8	3.7	CC(C)NC(=O)N1[C@H](CO)[C@H]2c3ccccc3N(C)C[C@H]21
-4.2	-3.3	-0.9	O=C(C[C@H]1C=C[C@H](NC(=O)C2CCC2)[C@H](CO)O1)NCc1ccccc1Cl
4.0	2.9	1.1	CCC(=O)NC[C@H]1[C@H](c2ccccc2)[C@H](CO)N1C(=O)C1CC1
3.4	2.2	1.2	O=C(CC1CC1)N1CC2(C1)[C@H](c1ccccc1)[C@H](CO)N2Cc1ccccn1
1.5	0.5	0.9	COCC(=O)N1CC2(C1)[C@H](c1ccccc1)[C@H](CO)N2Cc1ccccc1OC
3.2	1.9	1.3	CO[C@H](CN(C)C(=O)c1cnccn1)[C@@H](C)CN([C@H](C)CO)S(=O)(=O)c1ccc(F)cc1
0.3	-1.4	1.7	CC(=O)N(C)C[C@@H]1[C@H](c2ccc(-c3ccccc3F)cc2)[C@H](CO)N1C(C)=O
1.6	0.2	1.5	C/C=C/c1ccc([C@@H]2[C@H](CO)N[C@H]2CN(CC(C)C)C(=O)c2ccccn2)cc1
9.7	8.2	1.5	CN(C)C(=O)C[C@@H]1C[C@H]2c3cc(NC(=O)C4CCOCC4)ccc3O[C@H]2[C@@H](CO)O1
-1.4	-2.8	1.4	CC(C)COC(=O)N(C)C[C@H]1OCc2cn(nn2)CCCC(=O)N([C@@H](C)CO)C[C@@H]1C
5.7	5.8	-0.1	CCC(=O)N1CC2(CCN(C(=O)Cc3ccccc3)CC2)c2c(n(C)c3cc(OC)ccc23)[C@@H]1CO
1.4	-1.7	3.0	COc1ccc(C[C@H]2CCc3cnnn3COC[C@H](C(C)C)NC2=O)cc1
-3.9	-6.7	2.8	CCCNC(=O)N1C[C@H]2[C@@H](c3ccccc31)[C@H](CO)N2C(=O)NC(C)C
12.6	2.9	9.6	C/C=C/c1ccc([C@H]2[C@@H](CO)N(C(C)=O)C23CN(C(=O)c2ccc(F)cc2)C3)cc1
-0.2	-7.2	7.0	C[C@@H]1CN([C@@H](C)CO)C(=O)CCCn2nncc2CO[C@H]1CN(C)C(=O)Nc1ccc2c(c1)OCCO2
5.8	1.0	4.8	COc1ccc2c3c(n(C)c2c1)[C@H](CO)N(C(C)=O)CC31CCN(Cc2ccccc2OC)CC1
-0.9	-6.8	5.9	COC(=O)c1ccc(CN2CC(=O)N3[C@H](C2)[C@H](c2ccc(Br)cc2)[C@@H]3CO)cc1
-0.3	-1.5	1.2	CNC[C@H]1Oc2ccc(NC(=O)CCC(F)(F)F)cc2C(=O)N([C@H](C)CO)C[C@H]1C
?	.	.	CCCC#Cc1ccc([C@H]2[C@@H](CO)N3C(=O)CN(C(=O)Nc4cccc(F)c4)C[C@@H]23)cc1
-3.2	-10.6	7.4	O=C1NCCOCc2cn(nn2)CC[C@H]1Cc1ccccc1
-1.7	-0.4	-1.3	C[C@@H]1CCCCO[C@@H](CN(C)Cc2ccc(Cl)c(Cl)c2)[C@H](C)CN([C@@H](C)CO)C(=O)c2cc(NC(=O)Nc3ccc4c(c3)OCO4)ccc2O1
10.0	0.7	9.3	Cc1ccccc1S(=O)(=O)N1C[C@@H](O)COC[C@@H]2O[C@H](CC(=O)NCCc3ccccc3)CC[C@H]21
0.0	1.8	-1.9	CCCC(=O)Nc1ccc2c(c1)C(=O)N(C)[C@H]1CC[C@@H](CC(=O)NCCN3CCCCC3)O[C@@H]1CO2
0.1	0.9	-0.8	CC(=O)N1[C@@H](CO)[C@H](c2ccccc2)[C@@H]1CNC(=O)CN1CCOCC1
?	.	.	Cn1cnc(S(=O)(=O)N2CCCCN3[C@H](CO)[C@H](c4ccc(C#CC5CCCC5)cc4)[C@H]3C2)c1
2.4	-1.0	3.4	CCN1[C@@H]2c3ccc(-c4ccccc4)c(=O)n3C[C@@H]2[C@@H](CO)[C@@H]1C(=O)NCC1CC1
-1.7	-0.8	-0.9	C[C@@H]1CN([C@@H](C)CO)S(=O)(=O)c2ccc(C3=CCCC3)cc2O[C@@H]1CN(C)CC1CCOCC1
8.1	-0.4	8.5	CC=Cc1ccc2n(c1=O)C[C@@H]1[C@@H](CO)[C@H](C(=O)NCCc3cn(C)cn3)N(C(=O)C3CCCC3)[C@H]21 (mixture of isomers)
-2.1	2.4	-4.5	Cc1ccc(S(=O)(=O)N[C@@H]2C=C[C@@H](CC(=O)NC3CCCCC3)O[C@@H]2CO)cc1
-5.6	6.2	-11.7	CCc1nc(N2[C@H](C#N)[C@@H](c3ccccc3-c3ccccc3C)[C@@H]2CO)sc1C

An excerpt. The share of hits here may be higher or lower than overall.
